Sa growth 42C: S. aureus growth inhibition at 42 and 30 °C, primary screen, LtaS inhibitor project, RN4220, two temperatures. OD600, 20 h, 42 °C; hits give low values. relative growth, % (no concentration beside the values). hit rate 0.53% among 170,000;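 active = growth at 42 °C up to 50% and 20 or more points under that at 30 °C, or under 10% at both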;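 note: 300 nL library stock went into each well; scaled to the means of positive and negative controls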
HCMV UL50-53 inh: inhibitors of HCMV UL50-UL53 interaction, biochemical, HTRF | HCMV UL50-UL53 nuclear egress complex (human cytomegalovirus) | normalized percent inhibition | inhibition, % (test concentration not listed) | hit rate 0.15% among 190,000 | AID 1918969, 2023;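 active = both replicates at 50% or more, plus weaker picks with an unusually low signal ratio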;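 note: stock transfer was 100 nL into about 20 µL; 0% = negative control wells and 100% = wells with untagged competitor protein; inactives centre near -12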
GIV-Gai inh: inhibitors of GIV peptide binding to Galpha-i3, primary screen, biochemical, fluorescence polarization, FITC-GIV GBA peptide, rat Galphai3. AID 1224905, 2016. Guanine nucleotide-binding protein G(i) subunit alpha-3 (Rattus norvegicus), P08753. hit rate 0.42% among 210,000. percent of control (FP), % (no concentration beside the values). 90 min; hits give low values; scaled: aluminum fluoride 0%, vehicle 100%;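 active = replicate mean at 85% of control or lower, very high polarization wells dropped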;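 note: wells of about 15 µL received 100 nL stock; the first replicate is given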
Target sequence (P08753 whole entry, looked up): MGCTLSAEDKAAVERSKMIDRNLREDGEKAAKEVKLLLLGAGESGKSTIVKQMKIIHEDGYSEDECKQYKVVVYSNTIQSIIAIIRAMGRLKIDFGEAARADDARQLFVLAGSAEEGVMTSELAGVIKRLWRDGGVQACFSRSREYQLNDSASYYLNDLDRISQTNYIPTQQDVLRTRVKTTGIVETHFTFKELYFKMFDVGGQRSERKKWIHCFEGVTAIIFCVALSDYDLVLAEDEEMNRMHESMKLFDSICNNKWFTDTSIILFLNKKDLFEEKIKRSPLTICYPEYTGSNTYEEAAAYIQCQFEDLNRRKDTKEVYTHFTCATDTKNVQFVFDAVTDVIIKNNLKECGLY
Sa growth 42C second temp: recorded beside Sa growth 42C, whose call it bears; relative growth, %; measured here: growth at 30 °C;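 optical density after 20 h as mean of two plates; 100% = untreated growth and lower means inhibition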
The depositor's hits bear a star; x = no result given; & = joins results of further samples. Random draw from the library; overall some 0.82% were active at least once.

SMILES | Sa growth 42C | Sa growth 42C second temp | HCMV UL50-53 inh | GIV-Gai inh
O=C(CSc1nc(=O)[nH]c2c1CCC2)NCc1ccccc1Cl | 134 | 90 | x | 98
CCOc1ccc(NS(=O)(=O)c2ccc3c(c2)N(C(C)=O)CCO3)cc1 | 80 | 81 | -23 | 102
O=C(Nc1ccc2c(c1)CCCN2C(=O)c1cccs1)c1c(F)cccc1F | 120 | 92 | x | 111
Oc1c(C=NCc2ccccc2)[nH]c2ccccc12 | 94 | 78 | -18 | 104
O=C(NCCN1CCOCC1)c1cccc2ccccc12 | 87 | 92 | -22 | x
O=C(NC1=NCCS1)c1sc2cc(F)ccc2c1Cl | 111 | 79 | -22 | x
COc1ccc(-c2nc3c(c(SCC(=O)N(C)c4ccccc4)n2)Cc2cc(C)ccc2O3)cc1 | 111 | 85 | -36 | 103
CC(=O)Nc1c2c(nn1-c1ccccc1)CS(=O)(=O)C2 | 87 | 85 | -9 | 99
Cc1nc2ccc(NC(=O)/C=C/C(=O)O)cc2s1 | 87 | 93 | -21 | x
Cn1c(NC(=O)/C=C/c2ccccc2)cc(=O)n(C)c1=O | 106 | 70 | -43 | 102
COc1ccc(N2CCN(C(=O)C(CC(C)C)NS(=O)(=O)c3ccc4nc(C)sc4c3)CC2)cc1 (configuration not stated) | 97 | 85 | -35 | 95
CCCCN(CC)C(=O)c1ccccc1Oc1ccccc1 | 102 | 94 | -7 | 97
Nc1c(-c2nc(-c3ccccc3)no2)nnn1CC(=O)Nc1cccc(F)c1 | 106 | 92 | x | 105
O=C(CN1C(=O)/C(=C\c2cccc(Br)c2)SC1=S)Nc1ccccc1C(=O)O | x | x | -21 | 105
COc1ccc(CNC(=O)c2cccnc2SC)cc1OC | 91 | 88 | -24 | x
O=C(Nc1ccc(F)cc1F)c1ccc(S(=O)(=O)c2ccc(Br)cc2)nc1 | x | x | -24 | 100
CCCCN(C(=O)c1nn(C)c2c1CSc1ccccc1-2)C1CCN(C(C)=O)CC1 | 97 | 77 | -13 | 101
CNC(=O)c1ccc2c(c1)N(Cc1cc(C)ccc1C)C(=O)c1ccccc1S2 | 65 | 38 | x | 107
CS(=O)(=O)c1nc2ccccc2n1Cc1cccc2ccccc12 | 98 | 87 | -34 | 104
Cc1ccc2[nH]c(=O)c(-c3noc(CCCC(N)=O)n3)cc2c1 | x | x | -59 | 103
CC(C)Oc1cccc(OCCn2cnc3ccccc32)c1 | 100 | 90 | -2 | 103
O=C(NCCCN1CCCC1)C(Cc1ccccc1)N1Cc2ccccc2C1=O (configuration not stated) | 102 | 98 | -7 | 105
CCN(CC)C(=O)c1nn(C)c2c1CSc1ccccc1-2 | 89 | 88 | -16 | 99
CCCOc1ccc(NC(=O)CC2C(=O)N(c3ccccc3)C(=O)N2Cc2ccc(F)cc2)cc1 (configuration not stated) | 84 | 88 | x | 104

Another view of some results above.
Results follow in this order: Sa growth 42C | Sa growth 42C second temp | HCMV UL50-53 inh | GIV-Gai inh
- CC(=O)Nc1c2c(nn1-c1ccccc1)CS(=O)(=O)C2
→ 87 | 85 | -9 | 99
- Cc1nc2ccc(NC(=O)/C=C/C(=O)O)cc2s1
→ 87 | 93 | -21 | x
- Cn1c(NC(=O)/C=C/c2ccccc2)cc(=O)n(C)c1=O
→ 106 | 70 | -43 | 102
- COc1ccc(N2CCN(C(=O)C(CC(C)C)NS(=O)(=O)c3ccc4nc(C)sc4c3)CC2)cc1 (configuration not stated)
→ 97 | 85 | -35 | 95
- CCCCN(CC)C(=O)c1ccccc1Oc1ccccc1
→ 102 | 94 | -7 | 97
- Nc1c(-c2nc(-c3ccccc3)no2)nnn1CC(=O)Nc1cccc(F)c1
→ 106 | 92 | x | 105
- O=C(CN1C(=O)/C(=C\c2cccc(Br)c2)SC1=S)Nc1ccccc1C(=O)O
→ x | x | -21 | 105
- COc1ccc(CNC(=O)c2cccnc2SC)cc1OC
→ 91 | 88 | -24 | x
- O=C(Nc1ccc(F)cc1F)c1ccc(S(=O)(=O)c2ccc(Br)cc2)nc1
→ x | x | -24 | 100
- CCCCN(C(=O)c1nn(C)c2c1CSc1ccccc1-2)C1CCN(C(C)=O)CC1
→ 97 | 77 | -13 | 101
- CNC(=O)c1ccc2c(c1)N(Cc1cc(C)ccc1C)C(=O)c1ccccc1S2
→ 65 | 38 | x | 107
- CS(=O)(=O)c1nc2ccccc2n1Cc1cccc2ccccc12
→ 98 | 87 | -34 | 104
- Cc1ccc2[nH]c(=O)c(-c3noc(CCCC(N)=O)n3)cc2c1
→ x | x | -59 | 103
- CC(C)Oc1cccc(OCCn2cnc3ccccc32)c1
→ 100 | 90 | -2 | 103
- O=C(NCCCN1CCCC1)C(Cc1ccccc1)N1Cc2ccccc2C1=O (configuration not stated)
→ 102 | 98 | -7 | 105
- CCN(CC)C(=O)c1nn(C)c2c1CSc1ccccc1-2
→ 89 | 88 | -16 | 99
- CCCOc1ccc(NC(=O)CC2C(=O)N(c3ccccc3)C(=O)N2Cc2ccc(F)cc2)cc1 (configuration not stated)
→ 84 | 88 | x | 104

Next section.
SMILES | Sa growth 42C | Sa growth 42C second temp | HCMV UL50-53 inh | GIV-Gai inh
CCCn1ccc2c(OCc3ccccn3)cccc2c1=O | 82 | 84 | -38 | 105
CNc1[nH]c(=S)nc2sc3c(c12)CCCC3 | 103 | 77 | -35 | 105
Cc1ccc(CS(=O)(=O)c2cn(CC(=O)N(C)c3ccccc3)c3ccccc23)cc1 | 99 | 93 | -2 | 103&112
COc1ccc(OCC(O)Cn2c(N3CCN(C)CC3)nc3c2c(=O)n(C)c(=O)n3C)cc1 (configuration not stated) | x | x | -20 | 98
O=C1CCCc2cc(S(=O)(=O)Nc3ccccc3)ccc2N1 | 91 | 88 | -16 | 107
COc1ccc(OCC(O)Cn2c(C3CC(=O)N(c4ccccc4)C3)nc3ccccc32)cc1 (configuration not stated) | x | x | -16 | 108
Cc1ccc(CN2CCSc3ccc(C(=O)N4CCN(c5ccccc5)CC4)cc32)cc1 | 113 | 97 | -26 | 103
COC(=O)c1ccc2c(=O)n3nc(Nc4cc(OC)ccc4OC)sc3nc2c1 | 116 | 92 | x | 111
COc1cc2c(cc1OC)CN(C1CC(=O)N(CCc3ccccc3)C1=O)CC2 (configuration not stated) | 93 | 97 | -11 | x
Cc1cc(-c2ccc(C)c(S(=O)(=O)N(C)c3ccc(C)c(C)c3)c2)on1 | 84 | 88 | x | 101
c1ccc2c(c1)COC(CCN1CCN(CCC3OCc4ccccc4CO3)CC1)OC2 | 123 | 84 | -10 | 101
CCOC(=O)C1CCN(c2ncnc3cc(OC)c(OC)cc23)CC1 | 109 | 87 | -6 | 111
C=CCN1CCc2c(cc(O)c(O)c2Br)[C@@H](c2ccccc2)C1 | x | x | -14 | 101
Cn1cccc1/C=C/C(=O)OCc1ccccc1C#N | 85 | 99 | -47 | x
COC(=O)c1ccccc1NC(=O)Cn1ncc2c(C)n(Cc3ccc(F)cc3)c(C)c2c1=O | 122 | 88 | -12 | 104
C/C(CC12CC3CC(CC(C3)C1)C2)=N/O | 96 | 102 | 9 | x
CCc1cccc2c(=O)c(C(=O)N3CCCCC3)c[nH]c12 | 97 | 85 | -8 | 103
CCOC(=O)c1c(C)nc2ccccc2c1C(=O)O | 99 | 88 | 5 | x
CCCc1cc(=O)n2[nH]c(C(=O)N3CCC(C)CC3)nc2n1 | 97 | 87 | x | 101
COc1cc(CCC(=O)NCc2ccccc2)cc(OC)c1OC | 105 | 90 | x | 101
CC1(C)Cc2c(sc3nc(-c4ccccc4)[nH]c(=O)c23)CO1 | 101 | 86 | -17 | 99
O=C(O)C1CCCN1S(=O)(=O)c1ccc(Cl)cc1 (configuration not stated) | 88 | 81 | -16 | 104
N#CCSc1nsc(SCC#N)c1C#N | 99 | 56 | -40 | 101
CC(=O)Nc1nc(C(=O)O)cs1 | 130 | 99 | -27 | 108
Cc1ccc(NC(=O)Cc2noc3ccccc23)cc1F | x | x | -8 | 107
N/C(=N\OC(=O)C1CCCS1)c1ccc(C(F)(F)F)cc1 (configuration not stated) | 90 | 87 | -23 | 106
C=CCn1c(=O)c2ccc(C(=O)NC(C)C)cc2n2c(=O)n(CC(=O)NC3CCCC3)nc12 | x | x | -23 | 104
CCC(=O)Nc1ccc2c(c1)nc(CCNC(=O)C1CC1)n2C | x | x | -18 | 101
O=C(Nc1ccc(Oc2ccccc2)cc1)C1c2ccccc2Oc2ccccc21 | 85 | 90 | x | 100
CSc1cccc(NC(=O)c2cccc(N3CCCS3(=O)=O)c2)c1 | 89 | 93 | x | 110
Clc1ccc(Cl)c(Nc2nc3cc(Cl)ccc3o2)c1 | 98 | 95 | 11 | x
C=Cc1ccc(CSc2nnc3n(CC4CCCO4)c(=O)c4sccc4n23)cc1 (configuration not stated) | x | x | 18 | 102
CCN(CC)c1ccc(NC(=O)Cn2nc(C)n3cccc3c2=O)c(C)c1 | 97 | 96 | -7 | 103
CC1=C(C(=O)N(CC(=O)NCc2ccco2)c2ccc(Cl)cc2)SCCO1 | 112 | 97 | 2 | 102
Cc1ccccc1Nc1cc(C(=O)NCCCN2CCN(c3cccc(Cl)c3)CC2)c2ccccc2n1 | 111 | 91 | x | 104
CCc1c(C)nc2cc(-c3ccccc3)[nH]n2c1=O | 84 | 99 | -21 | 111
COC(=O)c1ccc2c(c1)CN(c1ccc(Br)cc1)C2 | 83 | 95 | -43 | x
CCOC(=O)c1c(NC(=O)COC(=O)Cn2cnc3ccccc32)sc(C)c1C | 96 | 90 | -26 | x
COc1ccc(/C=C(/C#N)c2nc(-c3cc4ccccc4oc3=O)cs2)cc1 | 112 | 99 | -5 | 109
Cc1cc(Nc2ccccc2C)c2cccc(C)c2n1 | 104 | 94 | 0 | 107
Oc1ccccc1N1CCN(c2nc(-c3cccs3)nc3ccccc23)CC1 | 82 | 74 | -41 | x
Cc1cc(NC(=S)NC(C)(C)C)ccc1Br | 116 | 101 | -1 | 101
O=C(CC1SC(=O)N(Cc2ccc(Cl)cc2)C1=O)Nc1nccs1 (configuration not stated) | 85 | 87 | -11 | 100
Cc1ccc(C(=O)Nc2nccs2)c(C)c1 | 107 | 92 | 4 | 98
Cc1cc(C)nc(SCC(=O)c2ccccc2)n1 | 91 | 85 | x | 111
O=C(COc1ccccc1)NCC(=O)Nc1nc(CC23CC4CC(CC(C4)C2)C3)cs1 | 109 | 80 | x | 99
Cc1ccc(C)c(Cn2c3ccccc3c3cnn(CC(=O)NCCCN4CCOCC4)c(=O)c32)c1 | 89 | 89 | 3 | 101
CCc1ccccc1NC(c1nnc(-c2cccc(F)c2)o1)c1ccc(F)cc1Cl (configuration not stated) | 96 | 86 | -11 | 103
COC(=O)c1c(C)c(C)c(C(=O)OC)c(C)c1C | 87 | 110 | -3 | 103
Cc1ccccc1OCCCn1c(-c2ccc(Cl)cc2)nc2ccccc2c1=O | 101 | 109 | 5 | 111
CCOC(=O)C1=C(C)N=c2s/c(=C\c3cc(Br)c(O)c(OC)c3)c(=O)n2C1c1cccs1 (configuration not stated) | x | x | -18 | 77*
CCCCn1c(=O)c2c(nc3n2CCCCN3c2ccc(OCC)cc2)n(C)c1=O | x | x | -12 | 102
COc1ccccc1N1CCN(S(=O)(=O)CCNC(=O)C2CC(=O)N(c3ccccc3)C2)CC1 (configuration not stated) | 89 | 89 | x | 101
CCN(C(C)=O)c1nc2c3ccccc3n(C(C)=O)c2s1 | 92 | 88 | x | 101
Cn1c(=O)n(C)c2cc(NC(=O)Nc3ccc(F)cc3)ccc21 | x | x | -19 | 102
CCOc1nc2c(c(C)nn2-c2ccc(C)cc2)c(C)c1CCC(=O)Nc1ccc(OC)cc1OC | x | x | -4 | 106
O=C(c1c(Cl)nc2sccn12)N1CCOCC1 | 106 | 94 | -20 | x
CCc1ccccc1NC(=O)Cn1c(=O)n(Cc2ccc(OC)cc2)c(=O)c2oc3ccccc3c21 | 115 | 84 | x | 101
Cc1noc2ncnc(N3CCC(C(=O)N4CCc5ccccc54)CC3)c12 | 103 | 89 | -22 | 111
O=c1cc(Nc2ccc3c(c2)OCO3)[nH]c(=O)n1Cc1ccc(F)cc1 | 69 | 22 | 0 | 103
Next part
SMILES | Sa growth 42C | Sa growth 42C second temp | HCMV UL50-53 inh | GIV-Gai inh
COc1ccc(C(=O)Nc2ccc(N3CCN(c4ncccc4C(F)(F)F)CC3)nc2)cc1 | 96 | 99 | 2 | 105
S=C(NCC1CCCO1)N1CCN(Cc2ccccc2Cl)CC1 (configuration not stated) | 102 | 97 | -15 | 108
Cc1ccccc1CSc1nc2c([nH]c3ccccc32)c(=O)n1-c1ccccc1 | 99 | 103 | x | 108
CNS(=O)(=O)c1cc(-c2n[nH]c(=O)c3ccccc23)ccc1C | x | x | 4 | 104

Bioassay records as filed in PubChem BioAssay.
